Source: PubChem BioAssay
Ecoli growth – inhibitors of Escherichia coli growth | OD600, 23 h; hits give low values | OD600 absorbance (concentration not given with the values) | 330,000 compounds, 0.21% hits | AID 1053175;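 active = OD600 absorbance below the run mean of sample wells minus 3.6 SD, in any replicate, cut at about 0.56 in these data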;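 also: stock transfer was 300 nL into about 60 µL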
Vif A3G – inhibitors of Vif binding to APOBEC3G peptide, primary screen, biochemical, TR-FRET, GST-Vif 1-94, biotin-A3G peptide, dose response retest (AID 1117319). one-dose inhibition, %; IC50 in µM for titrated hits. TR-FRET GST-Vif / biotin-A3G peptide binding; higher % means a stronger effect; test concentration not given here; strong numbers were not always called active. 260,000 compounds, 0.57% hits;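 active = above the screen mean plus three standard deviations and confirmed in dose response; inconclusive = results disagree or hit not tested in dose response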;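 also: Vif residues 1-94 fused to GST binding biotinylated APOBEC3G peptide 110-148; 0% = full assay without inhibitor and 100% = GST in place of GST-Vif; retest series ran down from 100 µM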
Ecoli rRNA inh – inhibitors of bacterial rRNA selective over humanized ribosomes | 350,000 compounds, 1.6% hits | E. coli WT GFP vs humanized-ribosome RFP mutants, fluorescence, 24 h; hits give low values; DMSO median 0, no signal -100 | GFP signal change (wild-type ribosome), % (no concentration beside the values);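 active = significant combined selectivity score with lowered wild-type GFP, culture density cut under 30%, mutant RFP and density less affected; inactive = any of these conditions unmet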; also: one replicate is shown; some compounds called inactive have numbers as strong as hits
ALR inh – blocks human ALR sulfhydryl oxidase activity; inhibition, % (no concentration beside the values); purified ALR, DTT oxidation, H2O2 HRP-luminol luminescence; AID 485317; 290,000 compounds, 3.8% hits; P55789;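 active = mean and each replicate at 75% or more; inconclusive = only one of the two met; inactive = neither met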;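 also: stock transfer was 7.5 nL into about 7.5 µL; 0% = neutral wells and 100% = wells with inactivated enzyme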
Target sequence (P55789 whole entry, looked up): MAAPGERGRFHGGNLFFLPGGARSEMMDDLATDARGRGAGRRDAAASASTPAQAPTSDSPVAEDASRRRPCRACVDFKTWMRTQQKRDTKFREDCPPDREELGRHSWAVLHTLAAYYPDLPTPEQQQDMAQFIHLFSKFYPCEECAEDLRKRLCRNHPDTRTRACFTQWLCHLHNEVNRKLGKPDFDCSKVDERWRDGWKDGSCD
HNF4A DNA FP – change in binding of human HNF4 alpha to DNA | P41235 | HNF4a-FITC DNA binding, fluorescence polarization, 1 h | activity change, % at 10 µM | 360,000 compounds, 0.3% hits | AID 1224865; in the data active = activity change above about 30%, passing the limit was not always enough;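 also: controls were the assay level and a saturating level of protein; the project sought stronger binding though the title names inhibitors; some compounds called inactive have numbers as strong as hits; positive values seem to mean higher polarization but the record does not say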
Target sequence (P41235 whole entry, looked up): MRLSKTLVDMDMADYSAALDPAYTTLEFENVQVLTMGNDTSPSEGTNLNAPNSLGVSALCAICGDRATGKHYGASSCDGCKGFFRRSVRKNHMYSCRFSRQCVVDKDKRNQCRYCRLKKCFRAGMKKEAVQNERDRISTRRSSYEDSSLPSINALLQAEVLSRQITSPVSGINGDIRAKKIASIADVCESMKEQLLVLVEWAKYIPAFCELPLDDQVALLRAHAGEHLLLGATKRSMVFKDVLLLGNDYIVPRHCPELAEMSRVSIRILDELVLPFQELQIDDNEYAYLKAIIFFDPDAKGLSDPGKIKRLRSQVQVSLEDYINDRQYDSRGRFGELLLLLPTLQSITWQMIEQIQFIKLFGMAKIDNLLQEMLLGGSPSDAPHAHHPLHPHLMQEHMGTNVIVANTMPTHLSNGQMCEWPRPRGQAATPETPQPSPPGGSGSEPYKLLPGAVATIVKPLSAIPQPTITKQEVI
FGF22 binding – FGF22 (human) thermal shift binding; calls only at 9.99 µM; 340,000 compounds, 1.5% hits; recombinant FGF22 thermal shift, SYPRO orange fluorescence; percent of sucrose octasulfate shift, DMSO zero; Q9HCT0; AID 651658;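 active = melting point raised past a set limit in the mean and every replicate; inconclusive = no clear call; three in four hits are not shown here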
Target sequence (Q9HCT0 whole entry, looked up): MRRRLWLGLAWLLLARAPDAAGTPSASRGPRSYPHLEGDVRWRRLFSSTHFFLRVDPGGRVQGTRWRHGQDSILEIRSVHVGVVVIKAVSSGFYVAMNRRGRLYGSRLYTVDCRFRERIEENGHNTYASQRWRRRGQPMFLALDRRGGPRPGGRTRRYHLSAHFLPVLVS
MLL AF4-AF9 inh – blocks AF4 peptide binding to human AF9. P42568. AlphaScreen, biotin-AF4 peptide binding to FLAG-AF9. inhibition, % at 10 µM. 350,000 compounds, 0.47% hits. AID 651704;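 active = every replicate reaching a set inhibition limit, whatever the replicate mean, cut at about 25% in these data; inconclusive = mean inhibition reaches that limit but some replicates miss it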;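 also: 0% = plate neutral control median and 100% = total signal loss; the record names both 10 and 1 µM as test concentration; the first replicate is given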
Ecoli rRNA inh OD600 – second read-out of Ecoli rRNA inh, no call of its own (marks repeat the call); OD600 change, %; measured here: OD600 growth;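 optical density of the mix in the first replicate; 0 = DMSO median and -100 = no signal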
Ecoli rRNA inh RFP – second read-out of Ecoli rRNA inh, no call of its own (marks repeat the call); RFP signal change, %; measured here: RFP humanized mutant strains;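 first replicate; 0 = DMSO median and -100 = no signal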
Numbers without * were called inactive; i = inactive; ? = inconclusive; . = not tested or not shown; + = active, no number.

smiles	Ecoli growth	Vif A3G	Ecoli rRNA inh	Ecoli rRNA inh OD600	Ecoli rRNA inh RFP	ALR inh	HNF4A DNA FP	FGF22 binding	MLL AF4-AF9 inh
CCC(=O)N(C)C[C@H]1Oc2cc(C#C[C@H](C)O)ccc2S(=O)(=O)N([C@@H](C)CO)C[C@@H]1C	.	.	-2	3	-3.9	.	.	i	-2.3
CCCNC(=O)C1CC(=O)N(c2ccc(OCc3ccccc3)cc2)C1 (stereo not drawn)	.	0%	7	12	1.7	.	1.9	i	2.2
O=C(C[C@@H]1CC[C@H]2[C@@H](COC[C@@H](O)CN2Cc2cccc(C(F)(F)F)c2)O1)NCc1ccncc1	.	.	-1	5	1.9	.	.	+	-1.9
COc1cc(CC(=O)C(=O)O)oc(=O)c1	.	5%	4	24	1.0	.	-7.2	i	-1.2
C[C@H](CO)N1C[C@H](C)[C@@H](CN(C)CC2CCCCC2)Oc2ccc(NS(=O)(=O)c3cccs3)cc2CC1=O	.	.	-2	-22	5.1	.	.	i	1.8
O=C(c1oc(=O)c2ccccc2c1-c1ccccc1)N1CCOCC1	0.74	-1%	.	.	.	-3	2.6	.	.
CCOc1ccc(-c2noc(CCCC(=O)NCC3CCCO3)n2)cc1OC (stereo not drawn)	0.69	13%	-1	-6	0.5	-7	-2.5	i	0.7
CCNC(=O)COc1ncnc2scc(-c3ccc(F)cc3)c12	0.59	16%	-8	-5	0.4	-6	-0.5	i	-0.1
COc1ccc(NC(=O)CSc2nnc3ccc(-c4ccccn4)nn23)c(OC)c1	0.65	-7%	-2	1	0.1	-5	-1.2	i	2.2
O=C(CSc1nnc(-c2ccc3c(c2)OCCO3)o1)N1CCCC1	0.76	12%	.	.	.	99*	-0.9	.	.
COC(=O)[C@@H]1C[C@H]2CC[C@H](O)C[C@H]2N1Cc1ccccc1OC(=O)c1cccs1	.	-2%	2	5	1.9	.	7.5	i	-12
Cc1ccc(C2(C)NC(=O)N(CC(=O)Nc3ccccc3C(=O)NC3CCCC3)C2=O)cc1 (stereo not drawn)	0.73	-12%	-4	-3	-0.5	3	1.4	i	0.8
O=C(c1ccco1)N1CCN(C(=O)c2cnn3cccnc23)CC1	0.71	1%	.	.	.	-13	0.0	.	.
CC(=O)c1c(-c2ccccc2)c2cc(Cl)ccc2[nH]c1=O	0.73	13%	5	7	1.0	0	-4.2	i	-1.9
C[C@@H]1CN([C@@H](C)CO)S(=O)(=O)c2ccc(-c3ccncc3)cc2O[C@H]1CN(C)S(=O)(=O)c1ccccc1F	.	.	-7	-2	0.2	.	.	i	-0.2
CCCNC(=O)c1c(N)n(-c2cc(OC)cc(OC)c2)c2nc3ccccc3nc12	0.78	?	.	.	.	.	-5.8	.	.
COc1ccc(-c2csc(NC(=O)CS(=O)(=O)c3ccccc3)n2)c(OC)c1	.	.	.	.	.	.	-4.2	i	0.4
CC(=O)c1ccccc1OCCOCCOc1ccccc1C(C)=O	0.64	-2%	.	.	.	-8	3.1	.	.
CCN(CC)C(=O)C(=O)N/N=C/c1ccc(Br)cc1	.	22%	.	.	.	-4	-0.8	.	.
O=c1oc2ccccc2c(Nc2cccc3cccnc23)c1[N+](=O)[O-]	0.67	.	6	1	-3.1	-22	2.7	.	-1.0
CCCCCCCC(=O)N1CCN(c2cc3c(cc2F)c(=O)c(C(=O)O)cn3CC)CC1	0.097*	-1%	-34	-69	-2.2	-8	0.3	i	2.3
CCN1C(=O)[C@H]2[C@@H](c3ccc(-c4ccc5c(c4)OCO5)cc3)N3CCC[C@@]3(C(=O)OC)[C@H]2C1=O	.	.	6	12	1.8	-1	2.9	i	-11
O=C(COc1ccccc1Cl)Nc1ccccc1C(=O)N1CCCCC1	0.7	-6%	-5	-8	-1.0	-4	-2.9	i	-3.4
O=C(COC(=O)c1ccccc1)NCc1cccs1	0.71	9%	2	18	5.6	-5	-1.6	i	-9.6
C=CCn1c(SCC(=O)Nc2cc(Cl)ccc2C(=O)O)nc2sc(C)c(C)c2c1=O	.	-3%	-13	-14	-14	5	-1.9	.	-1.5
COc1ccc(-n2nnc3c(=O)n(CC(=O)N4CCC(C)CC4)cnc32)cc1	0.75	13%	-1	10	0.4	-16	2.8	i	7.5
Cc1ccc(-c2nc3c4ccccc4ccn3c2Cc2ccsc2)cc1	.	.	13	-5	3.6	.	4.7	i	-2.6
O=C(CSc1nc2c(cnn2-c2ccccc2)c(=O)[nH]1)NC1CCS(=O)(=O)C1 (stereo not drawn)	0.69	2%	10	9	0.1	10	4.3	i	1.3
O=C(NCc1ccc(N2CCCC2=O)cc1)Nc1cccc(Cl)c1	0.66	-3%	-14	-17	0.5	-5	0.2	i	-2.5
C=CCNC(=O)C(C(=O)OCC)C1CCCCC1 (stereo not drawn)	0.73	30%	.	.	.	5	0.0	.	.
CC(C)Oc1cc(C(=O)NC2CCCCC2)c2ccccc2n1	0.67	.	-5	-20	2.2	-3	-4.7	i	-6.0
Cc1sc(-n2c(C)ccc2C)c(C#N)c1C	0.63	28%	.	.	.	-3	2.3	.	.
COC(=O)c1ccc(N/C=C/C(=O)c2ccc(OC)c(OC)c2)cc1	0.72	0%	.	.	.	-3	0.5	.	.
CCN1CCN(c2nc3c(C)cccn3c(=O)c2/C=C(\C#N)C(=O)NCCOC)CC1	0.69	-9%	1	5	1.8	-2	-1.5	i	-3.9
CNC(=S)N1CCN(c2c(F)cc3c(=O)c(C(=O)O)cn(C4CC4)c3c2OC)CC1C (stereo not drawn)	0.045*	-1%	.	.	.	-19	2.2	.	.
CCc1ccccc1NC(=O)c1ccc(F)c(S(=O)(=O)N2CCC(C(N)=O)CC2)c1	0.68	-1%	.	.	.	1	2.3	.	.
O=S(=O)(c1ccccc1)N1CCN(c2ncnc3scc(-c4ccccc4)c23)CC1	0.67	.	-18	-38	-0.9	3	9.0	i	-0.8
CCOc1ccc(CCNC(=O)c2cccc3c2C(=O)N(CCOC)C3)cc1OCC	0.7	8%	-4	2	0.0	1	-4.0	i	0.8
CC(C)N1C(=O)c2ccccc2C1C(=O)NCCc1ccccc1 (stereo not drawn)	0.7	-8%	9	21	-3.2	-25	4.1	i	0.6
COc1ccc2nc(C)cc(Nc3cccc(C(=O)O)c3)c2c1	0.69	.	8	3	6.6	.	3.1	i	-3.1
CC1C(=O)N(Cc2cn(CCC3OCCO3)nn2)CCS(=O)(=O)N1Cc1ccc(-c2ccncc2)cc1 (stereo not drawn)	.	-4%	-3	-9	-3.7	.	2.5	i	-2.3
CN(C)CC(=O)N[C@@H]1CC[C@@H](CCNC(=O)C2CCCC2)O[C@@H]1CO	.	.	1	5	-3.7	.	.	i	1.1
COc1ccccc1N(C)S(=O)(=O)c1ccc(C(=O)NCc2ccc3c(c2)OCO3)cc1	0.67	4%	-17	-14	-2.1	-7	-2.3	i	1.2
O=C(CN1CCN(Cc2ccccc2Cl)CC1)N/N=C/C=C/c1ccco1	.	?	11	-1	4.5	-8	0.2	i	0.2
Cc1noc(C)c1NC(=O)Nc1ccc2c(c1)CC(=O)N([C@H](C)CO)C[C@@H](C)[C@H](CN(C)C(=O)NC1CCCCC1)O2	.	.	1	9	-2.7	.	.	i	-1.7
COc1cccc(C(=O)Nc2ccc3c(c2)OC[C@@H](C)N(CC2CC2)C[C@H](C)[C@@H](OC)CN(C)C3=O)c1	.	.	-4	2	-0.5	.	.	i	7.5
Cc1ccc(C(=O)C=Cc2cccc(C)c2)cc1	0.7	-2%	-3	6	1.1	.	-0.1	i	5.4
COc1ccc(C(=O)CC(=O)C(=O)Nc2cccc([N+](=O)[O-])c2C)cc1	0.71	.	0	5	-0.7	32	-3.2	i	-2.8
S=C(NCc1ccco1)Nc1cccc(Cl)c1Cl	0.65	2%	1	-3	-5.4	1	-1.3	i	-17
Cc1occc1C(=O)N1CCCC(CCC(=O)NCc2ccc(F)c(F)c2)C1 (stereo not drawn)	0.7	5%	3	2	1.6	.	-1.3	i	0.9

Going on with the list:
smiles	Ecoli growth	Vif A3G	Ecoli rRNA inh	Ecoli rRNA inh OD600	Ecoli rRNA inh RFP	ALR inh	HNF4A DNA FP	FGF22 binding	MLL AF4-AF9 inh
c1ccc(-c2nnc(OCCN3CCOCC3)c3ccccc23)cc1	0.74	-1%	.	.	.	-5	0.7	.	.
O=C(COC(=O)c1cccc(NS(=O)(=O)c2ccc(F)c(F)c2)c1)NC(=O)NC1CCCCC1	0.7	.	.	.	.	9	1.3	.	.
CCOC(=O)Cc1c(C)nc2c(-c3ccccc3OC)c(C)nn2c1C	0.7	16%	.	.	.	1	2.4	.	.
O=C1c2ccccc2C(=O)N1CCC(=O)N1CCc2ccccc21	0.77	-2%	.	.	.	.	1.3	.	.
C[C@@H]1CN([C@@H](C)CO)C(=O)Cc2cc(NC(=O)c3ccncc3)ccc2O[C@@H]1CN(C)Cc1ccc2c(c1)OCO2	.	.	-5	-8	-0.8	.	.	i	-1.2
CC(C)NC(=O)N(C)C[C@H]1Oc2ccc(NC(=O)Cc3cn(C)c4ccccc34)cc2CC(=O)N([C@@H](C)CO)C[C@H]1C	.	.	4	2	1.4	.	.	i	1.2
O=C1CC(N2CCN(c3ccccc3)CC2)C(=O)N1c1ccc2c(c1)OCO2 (stereo not drawn)	0.66	6%	11	15	0.6	.	-0.6	i	-1.5
COc1ccc(NC(=O)N(C)C[C@@H]2Oc3ccc(NC(=O)CCCCCC(=O)Nc4ccccc4N)cc3C(=O)N([C@@H](C)CO)C[C@@H]2C)cc1	.	.	0	-2	-1.0	.	.	i	0.1
CCOC(=O)N1CCN(c2ccc(N3C(=O)CCCC3=O)cc2[N+](=O)[O-])CC1	0.7	-3%	3	4	-1.9	1	1.8	i	0.2
Cc1nc(C(N)=O)c(N)n1CCc1ccccc1	0.68	-1%	14	14	2.5	0	-3.3	i	-2.2

Complete entries from above. Order of values: Ecoli growth	Vif A3G	Ecoli rRNA inh	Ecoli rRNA inh OD600	Ecoli rRNA inh RFP	ALR inh	HNF4A DNA FP	FGF22 binding	MLL AF4-AF9 inh
`O=C1c2ccccc2C(=O)N1CCC(=O)N1CCc2ccccc21` is listed as 0.77	-2%	.	.	.	.	1.3	.	.
`CCOC(=O)N1CCN(c2ccc(N3C(=O)CCCC3=O)cc2[N+](=O)[O-])CC1` is listed as 0.7	-3%	3	4	-1.9	1	1.8	i	0.2

Only part of the results is shown; the hit share may differ from the screen's.
